Screening data (PubChem)
GIRK2 activ – activators of human GIRK2 potassium channels. HEK293-GIRK2 thallium flux, Thallos fluorescence. hit rate 0.05% among 63,000. calls only for hits at 25 µM. G protein-activated inward rectifier potassium channel 2 (Homo sapiens), P48051;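 active = among the strongest 0.2% of first-round signals and kept after retests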;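 note: first round at about 10 µM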
Target sequence (P48051 whole entry, looked up): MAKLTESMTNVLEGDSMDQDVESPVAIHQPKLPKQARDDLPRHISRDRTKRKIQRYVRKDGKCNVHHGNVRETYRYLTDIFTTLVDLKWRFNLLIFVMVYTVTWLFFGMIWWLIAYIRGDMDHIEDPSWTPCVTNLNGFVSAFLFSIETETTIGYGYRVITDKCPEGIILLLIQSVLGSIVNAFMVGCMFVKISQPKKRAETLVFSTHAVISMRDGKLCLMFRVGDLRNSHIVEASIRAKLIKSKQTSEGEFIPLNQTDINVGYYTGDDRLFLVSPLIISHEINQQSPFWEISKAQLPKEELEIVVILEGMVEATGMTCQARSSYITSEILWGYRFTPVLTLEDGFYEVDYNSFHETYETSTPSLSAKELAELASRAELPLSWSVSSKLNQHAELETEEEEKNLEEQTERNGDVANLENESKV
Calls only; i = inactive. An excerpt (hit frequency here may not be typical).

SMILES	GIRK2 activ
CC(=O)COc1ccc2c(c1)O/C(=C\c1ccc([N+](=O)[O-])cc1)C2=O	i
CC/C=C\C/C=C\C/C=C\CCCCCCCC(=O)NC(Cc1ccc(O)cc1)C(=O)O (centres undefined)	i
Fc1ccc(-n2cc(-c3noc(-c4ccc5c(c4)OCO5)n3)nn2)cc1	i
COc1ccc(Cl)cc1NC(=O)C1=Cc2ccc(C)cc2OC=C1	i
COc1ccc(C(=O)Nc2cc(C(=O)N3CCCC3)cn(C)c2=O)c(OC)c1	i
N#Cc1nc(-c2ccc(Cl)cc2Cl)oc1N1CCN(C(=O)c2ccco2)CC1	i
O=C(Nc1ccccc1Cl)c1ccc(S(=O)(=O)NCc2cccs2)o1	i
COc1cccc(CNC(=O)Cn2c(=O)cc(-c3nc(C(C)C)no3)c3ccccc32)c1	i
CS(=O)(=O)N1CCN(CCNC(=O)c2cc(-c3ccccc3)n[nH]2)CC1	i
COc1ccc2c(c1)O/C(=C\c1ccc(Br)cc1)C2=O	i
Cc1nnsc1C(=O)N1CCC(c2nnc(-c3ccco3)o2)CC1	i
COc1cc(OC)cc(C(=O)Nc2ccc3c(c2)N(C(=O)C(C)C)CCC3)c1	i
COc1ccc(S(=O)(=O)NCCOc2ccc3c(c2)OCO3)cc1C	i
COc1ccc(-c2coc3cc(OCc4ccc([N+](=O)[O-])cc4)ccc3c2=O)cc1OC	i
CSc1ccc(CNC(=O)C2CCN(c3ncnc4c3sc3nc(C)cc(C)c34)CC2)cc1	i
COc1ccccc1NC(=O)NCCn1nc(-c2sc(C)nc2C)ccc1=O	i
O=C(NCC#CCOc1ccc2c(c1)OCO2)c1ccc(Cn2ccnc2)cc1	i
CSc1ccc(/C=C2\C=C(CC(N)=O)c3cc(F)ccc32)cc1	i
Cc1cc(NC(=O)C(=O)NCCC(c2ccccc2)c2ccccc2)no1	i
O=C(c1c(F)cccc1Cl)N1CCC2(CC1)OCCS2	i
CSc1ccc(/C=C2\C=C(CC(=O)NCc3ccc(N)cc3)c3cc(F)ccc32)cc1	i
Cn1nc(-c2ccc(F)cc2)cc1C(=O)Nc1ccc(CC(=O)N2CCC(O)CC2)cc1	i
COc1ncccc1C(=O)Nc1nnc(-c2ccsc2)o1	i
Cc1ccc(NC(=O)Cn2cc(-c3noc(-c4cccc(F)c4)n3)nc2C)cc1Cl	i
CN1[C@@H]2CC[C@H]1CC(OC(=O)C(CO)c1ccccc1)C2 (some centres undefined)	i
SMILES	GIRK2 activ
CCN(CC)S(=O)(=O)CCNC(=O)c1ccc2c(c1)OCO2	i
O=C1CCC(=O)N1CCN1C(=O)SC(Nc2ccccc2)C1=O (centres undefined)	i
CCCCOC(=O)c1ccc(NC(=O)c2cc3c(=O)n(C)c(=O)n(C)c3n2CCC)cc1	i
COc1ccc(-c2cc3c(=O)[nH]nc(SCC(=O)Nc4ccc(C)cc4)n3n2)cc1	i
C=C(C)Cn1c(=O)c2c(nc3n2CCCN3c2ccccc2)n(C)c1=O	i
CCOc1ccccc1NC(=O)N1CCCSCC1CN(C)C (centres undefined)	i
CC(C)NC(=O)CCn1c(=O)c2ccccc2n2c(SCC(=O)NCc3ccccc3)nnc12	i
COc1ccc(NC(=O)C(=O)NCCCN2CCCC2=O)cc1OC	i
N=C1C(c2nc3ccccc3[nH]2)=C(O)CN1Cc1ccc(F)cc1	i
COc1ccc(C2CCN(C(=O)CSc3ccc(F)cc3)C2)cc1 (centres undefined)	i
CCS(=O)(=O)N1CCCc2ccc(NS(=O)(=O)c3ccc4c(c3)OCCO4)cc21	i
Cc1ccc(C)c(S(=O)(=O)NCc2ccc(C(=O)N3CCN(c4ccccc4F)CC3)cc2)c1	i
Cc1cc(C)c(S(=O)(=O)NCCC(=O)NC(C)(C)CO)cc1N(C)S(C)(=O)=O	i
Cc1cc(NC(=O)C2(c3cccs3)CCCC2)sn1	i
Cc1ccccc1Cn1c(=O)c2c(nc3n(CCCO)c(C)c(C)n23)n(C)c1=O	i
O=S(=O)(NCC(O)c1ccoc1)c1ccc(Cl)cc1 (centres undefined)	i
Cc1cccc(N2C(=O)N(c3ccc(Br)cc3)C3CS(=O)(=O)CC32)c1 (centres undefined)	i
O=C1/C(=C/c2ccc(F)cc2)Oc2c1ccc1c2CN(CC2CCCO2)CO1 (centres undefined)	i
CCN1CCc2c(sc(NC(=O)c3ccc(C(C)=O)cc3)c2-c2nc3ccccc3s2)C1	i
O=C(NCc1ccccn1)c1ccc(Cn2c(=O)[nH]c3ccsc3c2=O)cc1	i
COC(=O)c1ccc2nc(C)cc(NC(=O)c3ccc(N4C(=O)CCC4=O)cc3)c2c1	i
O=C(Nc1ccccc1-c1ccc(=O)[nH]n1)C1COc2ccccc2O1 (centres undefined)	i
Cn1c(=O)[nH]c(=O)c2c1nc(NC(Cc1ccccc1)C(=O)O)n2CC(O)COc1ccccc1 (centres undefined)	i
O=C(NCC(O)c1ccoc1)c1ccc(Br)o1 (centres undefined)	i
Cc1ccc(NC(=O)Cn2cnc3c(-c4ccc(C)cc4)nsc3c2=O)cc1	i
SMILES	GIRK2 activ
O=C(NCc1ccco1)c1c[nH]c2ccc(F)cc2c1=O	i
CCOc1ccc(-c2ccc(OCCNC(=O)CC3CCCC3)nn2)cc1	i
Cc1cc(C)cc(NC(=O)CN2CCC(C(=O)Nc3nc(C)c(C(=O)N(C)C)s3)CC2)c1	i
CC1(C)CC(=O)C2=C(C1)Nc1ncnn1C2c1ccc(C(F)(F)F)cc1 (centres undefined)	i
COc1ccc(Cl)cc1C(=O)NCCc1nc(C2CC2)cc(C(F)(F)F)n1	i
CN(C)CCNc1nc2c(c(=O)n(Cc3ccccc3)c(=O)n2C)n1C	i
COc1cc(NC(=O)NCCc2ccoc2)cc(OC)c1OC	i
Cc1ccc(Cl)cc1N1CCN(S(=O)(=O)c2nn(C)cc2C(=O)NCCCOC(C)C)CC1	i
Cc1ccc(S(=O)(=O)c2cn(CC(=O)Nc3cc(C)ccc3C)c3ccc(F)cc3c2=O)cc1	i
COc1ccc(CC(=O)Nc2cc(C)nn2-c2nc(-c3ccc(Cl)cc3)cs2)cc1OC	i
Cc1cccc(-c2nc(Cn3nnc(C(=O)Nc4ccc(Cl)cc4)c3N)c(C)o2)c1	i
O=C(CSc1nccn1-c1ccc(C(=O)NCc2ccco2)cc1)NC1CCCCC1	i
COc1ccc(OC)c(-c2cc(C(=O)NCC(C)(O)c3ccccc3)n(C)n2)c1 (centres undefined)	i
COCCn1nnn(-c2ccc(NC(=O)c3snnc3C)cc2)c1=O	i
CN(C)c1ccc(C(=S)N2CCN(C(=S)NC3CCCCC3)CC2)cc1	i
Cc1nccn1-c1ccc(C(=O)N(Cc2ccccc2)c2ccccn2)nn1	i
O=C(NCc1ccco1)NNc1nc2c(-c3ccccc3)nnn2c2ccccc12	i
Cc1csc(SCC2CCN(C(=O)CCSc3ccccc3)CC2)n1	i
COc1ccccc1/C=C1\Oc2cc(OCC(=O)OC(C)(C)C)ccc2C1=O	i
Cc1onc(-c2ccccc2Cl)c1C(=O)NCCCN1CCN(c2ccccc2)CC1	i
CCOc1ccc(S(=O)(=O)N2CCC(c3nnc(CC)s3)CC2)cc1	i
COCCN1COc2ccc3c(=O)c(-c4ccc(Cl)cc4)coc3c2C1	i
CC1=C(C(=O)OCc2ccccc2)C(c2cccc(F)c2)NC(=O)N1 (centres undefined)	i
CC(=O)Nc1ccc(S(=O)(=O)NC(C)C(=O)O)cc1 (centres undefined)	i
COc1ccccc1OCC(=O)Nc1cc(-c2cccs2)nn1-c1nc(C)cc(=O)[nH]1	i
SMILES	GIRK2 activ
COC(=O)c1ccc(CN2CCN(c3c(C)nn(C4CCS(=O)(=O)C4)c3C)CC2)o1 (centres undefined)	i
O=C(CCc1csc(NC(=O)c2cccs2)n1)NCCc1ccccc1	i
Cc1cccc(CS(=O)(=O)N2CCC(CSCc3ccco3)CC2)c1	i
COc1cccc(CSc2nc(CC(=O)Nc3ccc(C)c(C)c3)cc(=O)[nH]2)c1	i
CC(=O)O[C@H]1CC2C(COC(=O)CC(C)C)=CO[C@@H](OC(=O)CC(C)C)C2[C@@]12CO2 (some centres undefined)	i
CCOc1ccc(CC(=O)NCCc2nc(C3CC3)cc(C(F)(F)F)n2)cc1	i
CCc1cccc(NC(=O)Cn2c(C)cc(C)c(-c3nc(-c4ccccc4)no3)c2=O)c1	i
OCCCNc1nccc(-c2c(-c3ccc(F)cc3)nn3cc(C(F)(F)F)ccc23)n1	i
Cc1ccc(NC(=O)C(C)N2C(=O)c3ccccc3S2(=O)=O)c(C)c1 (centres undefined)	i
Cc1cc(C)n(-c2cc(SCC(=O)Nc3cc(C(F)(F)F)ccc3Cl)ncn2)n1	i
CCOc1ccccc1NC(=O)CSC1=NNC2C3CC(c4ccccc4)NN3C=CN12 (centres undefined)	i
O=C(Nc1cccc(F)c1)N1CCN(c2cc(Nc3ccccn3)ncn2)CC1	i
O=C(Nc1ccc(-n2nnn(CC(=O)N3CCOCC3)c2=O)cc1)c1ccco1	i
CC(C)(C)NC(=O)CSc1nc(-c2cccs2)cc(C(F)(F)F)c1C#N	i
C=CCn1c(=O)c2c(nc3n(-c4ccc(C)cc4C)c(C)cn23)n(C)c1=O	i
COC(=O)c1ccc(S(=O)(=O)NCC2CCN(C(=O)COc3ccccc3)CC2)cc1	i
CSc1ccccc1NC(=O)CCCn1c(C)ccc1C	i
CCC(CC)c1nc(Cn2cc(-c3nc(-c4ccc(OC)c(F)c4)no3)ccc2=O)no1	i
CC1=C(C(=O)Nc2ccc(C)c(C)c2)C(c2ccc(Cl)c([N+](=O)[O-])c2)NC(=S)N1 (centres undefined)	i
Cc1nnc(CNC(=O)C2CSCCC(=O)N2)o1 (centres undefined)	i
CCOc1ccc(-c2nc(Cn3nnc(C(=O)Nc4cc(C)cc(C)c4)c3N)c(C)o2)cc1OC	i
Cc1cn2c3c(=O)n(C)c(=O)n(C)c3nc2n1CCNc1ccc(Br)cc1	i
Cc1nnc(NC(=O)CCc2csc(NC(=O)c3ccc(F)cc3)n2)s1	i
CSc1cccc(NC(=O)c2cn[nH]c2S(=O)(=O)Nc2cc(C)cc(C)c2)c1	i
O=C(CCS(=O)(=O)Cc1ccccc1)Nc1nc2c(F)cc(F)cc2s1	i

Quoted from the entries so far for reference:
SMILES	GIRK2 activ
COC(=O)c1ccc(CN2CCN(c3c(C)nn(C4CCS(=O)(=O)C4)c3C)CC2)o1 (centres undefined)	i
O=C(CCc1csc(NC(=O)c2cccs2)n1)NCCc1ccccc1	i

New compounds follow.
SMILES	GIRK2 activ
CC(C)(C)c1ccc(OCC(=O)NCC2CCN(C(=O)Oc3ccccc3)CC2)cc1	i
COc1ccc(S(=O)(=O)NCCCC(=O)O)cc1N(C)S(C)(=O)=O	i
O=C(NCC1(O)CCc2ccccc2C1)c1ccc(Br)o1 (centres undefined)	i
CN(C)/C=C/c1ccc2cccnc2c1[N+](=O)[O-]	i
CCOC(=O)C(=O)NCC1CCC(c2nc3ccccc3n2C)CC1 (centres undefined)	i
Cn1c(SCc2nc(-c3ccc(Br)cc3)no2)nc2cc3c(cc2c1=O)OCO3	i
COc1cc(NC(=O)Cc2cn(C)c3ccccc23)ncn1	i
CCc1nnc(NC(=O)c2cc3ccccc3c(=O)s2)s1	i
COc1ccc(NC(=O)Cc2nnc(-c3cccc(F)c3)o2)cc1Cl	i
COC(=O)c1ccccc1NC(=O)Cn1cnc2c(-c3ccc(Cl)cc3)csc2c1=O	i
COC(=O)N1CCc2ccc(Br)cc2C1C(=O)NC(C)(C)CO (centres undefined)	i
Cc1ccc2[nH]c3c(=O)n(CCC(=O)NCc4ccncc4)cnc3c2c1	i
O=C(Nc1ccc(N2CCCS2(=O)=O)cc1)c1c(F)cccc1F	i
Cc1cc(CN2CCC(CNC(=O)c3cnccn3)CC2)c(C)o1	i
Cc1nc(NCCNC(=O)COc2ccc(Cl)cc2)cc(Nc2ccccn2)n1	i
CCOC(=O)NCC1(c2ccccc2OC)CCOCC1	i
COc1cccc(CNC(=O)CSc2nc3cc(-c4ccccc4)sc3c(=O)n2C)c1OC	i
COc1ccc(-c2c(NC(=O)c3ccc(OC)c(OC)c3)oc3ccccc3c2=O)cc1	i
Cc1cc(N2CCN(CCO)CC2)n2nc(C)c(-c3ccccc3)c2n1	i
CC(=O)N1N=C(c2cccc(O)c2)CC1c1cccs1 (centres undefined)	i
C[C@@H]1C[C@H]2[C@@H]3CCC4=CC(=O)C=C[C@]4(C)[C@@]3(F)[C@@H](O)C[C@]2(C)[C@@]1(O)C(=O)CO	i
CCSc1ccccc1C(=O)Nc1ccc(-c2nc(C)no2)cc1	i
CCN1CCN(CC(O)COCC2CC3CCC2C3)CC1 (centres undefined)	i
COC(=O)c1ccc(N/C=C(\C#N)c2nc(-c3ccc(Br)cc3)cs2)cc1	i

Grouped by structure: those above with a furan ring, fused or not
SMILES	GIRK2 activ
N#Cc1nc(-c2ccc(Cl)cc2Cl)oc1N1CCN(C(=O)c2ccco2)CC1	i
O=C(Nc1ccccc1Cl)c1ccc(S(=O)(=O)NCc2cccs2)o1	i
Cc1nnsc1C(=O)N1CCC(c2nnc(-c3ccco3)o2)CC1	i
O=S(=O)(NCC(O)c1ccoc1)c1ccc(Cl)cc1 (centres undefined)	i
O=C(NCC(O)c1ccoc1)c1ccc(Br)o1 (centres undefined)	i
O=C(NCc1ccco1)c1c[nH]c2ccc(F)cc2c1=O	i
COc1cc(NC(=O)NCCc2ccoc2)cc(OC)c1OC	i
O=C(CSc1nccn1-c1ccc(C(=O)NCc2ccco2)cc1)NC1CCCCC1	i
O=C(NCc1ccco1)NNc1nc2c(-c3ccccc3)nnn2c2ccccc12	i
COC(=O)c1ccc(CN2CCN(c3c(C)nn(C4CCS(=O)(=O)C4)c3C)CC2)o1 (centres undefined)	i
Cc1cccc(CS(=O)(=O)N2CCC(CSCc3ccco3)CC2)c1	i
O=C(Nc1ccc(-n2nnn(CC(=O)N3CCOCC3)c2=O)cc1)c1ccco1	i
O=C(NCC1(O)CCc2ccccc2C1)c1ccc(Br)o1 (centres undefined)	i
Cc1cc(CN2CCC(CNC(=O)c3cnccn3)CC2)c(C)o1	i
